Screening results from PubChem BioAssay.
YB-1 expression: YB-1 expression inhibition | U2OS, qRT-PCR YB-1 vs CDIP delta delta Cp, 16 h; hits give high values; zero = DMSO, each unit about twofold | delta delta Cp (YB-1 minus CDIP) (no concentration beside the values) | 0.37% of 30,000 active | AID 434959;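 active means delta delta Cp rounded down to an integer at or above 3, about 3 SD of DMSO wells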;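 further: higher means less YB-1 transcript or more CDIP transcript relative to DMSO; stock transfer was 100 nL into about 100 µL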
Numbers without * were called inactive.

How did Cc1nnc(Sc2ccc(/C=N/NC(=O)CCCCCCC(=O)Nc3ccccc3O)o2)n1C do in these assays?
YB-1 expression: -0.044

How did C=CCN1Cc2ccccc2[C@@H]2OC(c3ccc(OCCCO)cc3)=N[C@]2(CCS(=O)(=O)c2ccccc2)C1=O do in these assays?
YB-1 expression: 0.25

How did C[C@H](CO)N1C[C@H](C)[C@@H](CN(C)Cc2ccc(Cl)c(Cl)c2)OCc2cn(nn2)CCCC1=O do in these assays?
YB-1 expression: 0.26

Results for Cc1noc(C)c1NC(=O)N(C)C[C@@H]1Oc2ncc(C#Cc3ccccc3)cc2C(=O)N([C@H](C)CO)C[C@@H]1C ?
YB-1 expression: 0.22

Results for C[C@@H]1CN([C@H](C)CO)C(=O)CCCn2cc(nn2)CO[C@@H]1CN(C)C(=O)Nc1ccc(C(C)(C)C)cc1 ?
YB-1 expression: -0.019

What do the screens show for `Cc1nnc(Sc2ccc(/C=N/NC(=O)c3ccccn3)o2)n1C`?
YB-1 expression: 0.0017

How did O=C(N/N=C/c1cn(S(=O)(=O)c2ccccc2)c2ccccc12)c1ccccc1O do in these assays?
YB-1 expression: -0.059

How did C[C@@H]1CN([C@H](C)CO)C(=O)CCCn2nncc2CO[C@H]1CN(C)C(=O)c1ccc2ccn(C)c2c1 do in these assays?
YB-1 expression: 0.13

Results for C[C@H](CO)N1C[C@H](C)[C@H](CN(C)C(=O)Nc2ccc(F)cc2)Oc2ncc(-c3cccc(C(F)(F)F)c3)cc2C1=O ?
YB-1 expression: 0.057

What do the screens show for `O=C(N/N=C/c1ccc(Br)s1)c1ccccc1O`?
YB-1 expression: 0.34

What do the screens show for `Cc1ccc(S[C@]2(C(=O)NC3CC3)CC(=O)N(C3CCCCC3)[C@@H]2c2ccc(CO)cc2I)cc1`?
YB-1 expression: -0.064

What do the screens show for `C[C@H](CO)N1C[C@H](C)[C@@H](CN(C)C(=O)Nc2cccc3ccccc23)OCc2cnnn2CCCC1=O`?
YB-1 expression: -0.068

Results for C[C@@H]1CN([C@H](C)CO)C(=O)CCCn2nncc2CO[C@H]1CN(C)S(=O)(=O)c1ccc(-c2ccccc2)cc1 ?
YB-1 expression: 0.12

What do the screens show for `O=C(CCCCCCC(=O)Nc1ccccc1O)N/N=C/c1cc(Br)cc([N+](=O)[O-])c1O`?
YB-1 expression: -0.39

Results for C=CCNC(=O)[C@@H]1[C@H]2C(=O)O[C@H](c3ccccc3)[C@H](c3ccccc3)N2[C@H](c2ccccc2OCCO)[C@@]12C(=O)Nc1ccc(C#CCC(C(=O)OC)C(=O)OC)cc12 ?
YB-1 expression: -0.68

What do the screens show for `CC(C)NC(=O)N(C)C[C@@H]1OCc2cnnn2CCCC(=O)N([C@@H](C)CO)C[C@H]1C`?
YB-1 expression: -0.21

What do the screens show for `CN(C)C(=O)[C@@]1(Cc2ccccc2)N=C(c2ccc(OCCCO)cc2)O[C@H]1c1ccccc1`?
YB-1 expression: 0.82

Results for O=C(N/N=C\c1cc(Br)ccc1O)c1ccccc1O ?
YB-1 expression: 0.68

Results for CNC[C@H]1OCc2cnnn2CCCC(=O)N([C@H](C)CO)C[C@@H]1C ?
YB-1 expression: 0.15

What do the screens show for `COCCOC(=O)N1C(=O)[C@@]2(c3ccccc31)[C@H](C(=O)N1CCN(c3ncccn3)CC1)[C@H]1C(=O)O[C@H](c3ccccc3)[C@H](c3ccccc3)N1[C@@H]2c1ccc(OCCO)cc1`?
YB-1 expression: 0.12

How did O=C(CCCCC(=O)N/N=C/c1ccccc1C(=O)O)NO do in these assays?
YB-1 expression: -0.019

What do the screens show for `C[C@@H]1CN([C@@H](C)CO)C(=O)CCCn2cc(nn2)CO[C@H]1CN(C)Cc1ccc(C(F)(F)F)cc1`?
YB-1 expression: -0.38

Results for CC(C)=CCC[C@H](C)C/C=N/NC(=O)CCCCC(=O)NO ?
YB-1 expression: -0.4

How did O=C(c1ccccc1)N1Cc2ccccc2[C@H]2OC(c3ccc(OCCCO)cc3)=N[C@@]2(Cc2ccccc2)C1=O do in these assays?
YB-1 expression: -0.23

What do the screens show for `Cc1ccccc1S(=O)(=O)N(C)C[C@H]1OCc2cnnn2CCCC(=O)N([C@@H](C)CO)C[C@H]1C`?
YB-1 expression: -0.19

How did COc1ccc(C#Cc2cnc3c(c2)C(=O)N([C@H](C)CO)C[C@H](C)[C@H](CN(C)C(=O)Nc2ccc4c(c2)OCO4)O3)cc1OC do in these assays?
YB-1 expression: 0.05

Results for C[C@@H]1CN([C@@H](C)CO)C(=O)c2cc(NC(=O)CCN3CCOCC3)ccc2O[C@H]1CN(C)Cc1ccc(C(=O)Nc2ccccc2N)cc1 ?
YB-1 expression: 0.12

Results for C[C@@H]1CN([C@@H](C)CO)C(=O)CCCn2nncc2CO[C@@H]1CN(C)C(=O)Nc1ccccc1F ?
YB-1 expression: 0.34

How did C[C@@H]1CN([C@@H](C)CO)C(=O)CCCn2nncc2CO[C@@H]1CN(C)Cc1ccccc1 do in these assays?
YB-1 expression: 0.13

What do the screens show for `COCCOC(=O)N1C(=O)[C@@]2(c3cc(C#CC4(O)CCCCCC4)ccc31)[C@H](c1ccc(O)cc1)N1[C@H](c3ccccc3)[C@H](c3ccccc3)OC(=O)[C@H]1[C@@H]2C(=O)N1CCN(c2ncccn2)CC1`?
YB-1 expression: -0.015

Results for C[C@@H]1CN([C@H](C)CO)C(=O)CCCn2nncc2CO[C@@H]1CN(C)S(=O)(=O)c1ccc(F)cc1 ?
YB-1 expression: 0.44

Results for COc1cc(/C=N/NC(=O)c2cccc(C(=O)NO)c2)cc(OC)c1OC ?
YB-1 expression: -0.12

What do the screens show for `CC(C)OC(=O)N(C)C[C@@H]1OCc2cn(nn2)CCCC(=O)N([C@@H](C)CO)C[C@H]1C`?
YB-1 expression: -0.41

How did CC(C)C[C@@H]1NC(=O)[C@@H]2C[C@H](C(=O)O)[C@H](c3cccc(OCCO)c3)N2C1=O do in these assays?
YB-1 expression: -0.21

What do the screens show for `C[C@H]1CN([C@@H](C)CO)C(=O)CCCn2cc(nn2)CO[C@@H]1CN(C)C(=O)Nc1ccc(-c2cccs2)cc1`?
YB-1 expression: -0.037

What do the screens show for `O=C(CCCCCCC(=O)N/N=C\c1ccc(O)c2ccccc12)NO`?
YB-1 expression: -0.58

How did CC(C)OC(=O)N(C)C[C@H]1OCc2cnnn2CCCC(=O)N([C@H](C)CO)C[C@@H]1C do in these assays?
YB-1 expression: 0.17

How did C[C@@H]1CN([C@@H](C)CO)C(=O)CCCn2cc(nn2)CO[C@H]1CN(C)S(=O)(=O)c1ccc(Oc2ccccc2)nc1 do in these assays?
YB-1 expression: 0.25

How did O=C(NO)c1cccc(C(=O)N/N=C/c2ccc(O)c3ccccc23)c1 do in these assays?
YB-1 expression: 0.0087

How did COC(=O)CCCCCCC(=O)N/N=C/c1cn(Cc2ccccc2)c2ccccc12 do in these assays?
YB-1 expression: 0.45

How did C=CC[C@]1(C(=O)NCC(O)CO)N=C(c2ccc(OCCCO)cc2)O[C@H]1c1ccccc1 (stereo partly specified) do in these assays?
YB-1 expression: 0.31

Results for C[C@H](CO)N1C[C@H](C)[C@H](CN(C)Cc2ccc(F)cc2)Oc2ncc(-c3ccccc3)cc2C1=O ?
YB-1 expression: -0.1

Results for C[C@@H]1CN([C@H](C)CO)C(=O)CCCn2nncc2CO[C@H]1CN(C)S(=O)(=O)c1ccc(Oc2ccccc2)nc1 ?
YB-1 expression: -0.11

What do the screens show for `C[C@H](CO)N1C[C@H](C)[C@H](CN(C)S(=O)(=O)c2ccc(C#N)cc2)Oc2ncc(-c3cccc(C(F)(F)F)c3)cc2C1=O`?
YB-1 expression: -0.88

Results for C=CCC/C=N/NC(=O)CCCCCC(=O)O ?
YB-1 expression: 0.25

Results for C[C@H](CO)N1C[C@H](C)[C@@H](CN(C)Cc2ccncc2)OCc2cn(nn2)CCCC1=O ?
YB-1 expression: 0.082

How did CN(C)C(=O)[C@@]1(Cc2ccccc2CN=[N+]=[N-])N=C(c2ccc(OCCCO)cc2)O[C@H]1c1ccccc1 do in these assays?
YB-1 expression: -0.3

What do the screens show for `C[C@H]1CN([C@@H](C)CO)C(=O)CCCn2cc(nn2)CO[C@@H]1CN(C)S(=O)(=O)c1ccc2c(c1)OCCCO2`?
YB-1 expression: -0.014

What do the screens show for `[N-]=[N+]=NCc1ccccc1C[C@@]1(C(=O)N2CCOCC2)N=C(c2ccc(OCCCO)cc2)O[C@@H]1c1ccccc1`?
YB-1 expression: 0.24

What do the screens show for `COc1ccc(OC(=O)N(C)C[C@H]2OCc3cn(nn3)CCCC(=O)N([C@@H](C)CO)C[C@H]2C)cc1`?
YB-1 expression: 0.078

Results for O=C(N/N=C/c1cc2c(cc1Br)OCO2)c1ccccn1 ?
YB-1 expression: -0.2

Results for O=C(O)CCCCCCC(=O)N/N=C/c1ccc(S(=O)(=O)O)o1 ?
YB-1 expression: -0.14

What do the screens show for `C[C@H]1CN([C@@H](C)CO)C(=O)CCCn2cc(nn2)CO[C@H]1CN(C)C(=O)c1ccccc1`?
YB-1 expression: -0.16

What do the screens show for `C[C@H]1CN([C@@H](C)CO)C(=O)CCCn2cc(nn2)CO[C@@H]1CN(C)C(=O)C1CCCCC1`?
YB-1 expression: 0.06

What do the screens show for `CC(C)NC(=O)N(C)C[C@@H]1OCc2cnnn2CCCC(=O)N([C@@H](C)CO)C[C@@H]1C`?
YB-1 expression: 0.042

What do the screens show for `O=C(N/N=C/c1cc(Br)c(O)c(Br)c1)c1ccccn1`?
YB-1 expression: 0.2

What do the screens show for `O=C(N/N=C/c1ccc(Oc2ccccc2)cc1)c1ccccc1O`?
YB-1 expression: 0.24

How did COc1ccc(-c2cnc3c(c2)C(=O)N([C@H](C)CO)C[C@H](C)[C@H](CN(C)C(=O)NC(C)C)O3)cc1 do in these assays?
YB-1 expression: 0.13

How did COc1ccc(S(=O)(=O)N2CCN(Cc3ccc(OCCO)cc3)CC2)cc1 do in these assays?
YB-1 expression: 0.2

Results for C=CC[C@@H](OC(=O)Nc1ccc(SC)cc1)c1ccc(OCCO)cc1 ?
YB-1 expression: -0.19

Results for O=C(NC1CC1)[C@@H]1c2ccccc2C(=O)N(CC23CC4CC(CC(C4)C2)C3)[C@H]1c1ccc(CO)cc1 ?
YB-1 expression: 0.063

How did C[C@H](CO)N1C[C@H](C)[C@H](CN(C)S(=O)(=O)c2cccs2)OCc2cn(nn2)CCCC1=O do in these assays?
YB-1 expression: -0.47

How did C[C@H](CO)N1C[C@H](C)[C@@H](CN(C)S(=O)(=O)c2ccc(Oc3ccccc3)nc2)OCc2cn(nn2)CCCC1=O do in these assays?
YB-1 expression: 0.0097

How did C[C@@H]1CN([C@H](C)CO)C(=O)CCCn2cc(nn2)CO[C@@H]1CN(C)C(=O)OCc1ccccc1 do in these assays?
YB-1 expression: -0.12

Results for C[C@H]1CN([C@@H](C)CO)C(=O)CCCn2cc(nn2)CO[C@H]1CN(C)Cc1ccc(Oc2ccccc2)cc1 ?
YB-1 expression: -0.18

How did O=C(O)C1=C[C@@H](c2ccccc2)C[C@@H](OCc2ccc(CO)cc2)O1 do in these assays?
YB-1 expression: -0.23

What do the screens show for `CC1=C(C/C=N/NC(=O)CCCCCC(=O)O)C(C)(C)CCC1`?
YB-1 expression: 0.51

What do the screens show for `COC(=O)CCCCCCC(=O)N/N=C/c1ccoc1`?
YB-1 expression: 0.37

Results for C[C@H](CO)N1C[C@H](C)[C@H](CN(C)S(=O)(=O)c2cccc(F)c2)Oc2ncc(C#Cc3ccc(F)cc3)cc2C1=O ?
YB-1 expression: -0.1

Results for COc1ccccc1NC(=O)N(C)C[C@H]1OCc2cn(nn2)CCCC(=O)N([C@@H](C)CO)C[C@@H]1C ?
YB-1 expression: -0.058

Results for O=C(NCc1ccccc1)[C@@]1(Cc2ccccc2)N=C(c2ccc(OCCCO)cc2)O[C@H]1c1ccccc1 ?
YB-1 expression: -0.25

What do the screens show for `COC(=O)CCCCCCC(=O)N/N=C/c1cc(OC)ccc1Br`?
YB-1 expression: -0.68

What do the screens show for `C[C@H](CO)N1C[C@H](C)[C@@H](CN(C)Cc2ccc3c(c2)OCCN3C)OCc2cnnn2CCCC1=O`?
YB-1 expression: -0.24

What do the screens show for `C/C=C/[C@@H](CCn1cc(CCO)nn1)[Si](C)(C)c1ccc(OC)cc1`?
YB-1 expression: -0.11

What do the screens show for `Cc1ccc(N2C(=O)c3ccccc3[C@](C)(C(=O)O)[C@@H]2c2ccc(CO)cc2)nc1`?
YB-1 expression: 0.051

How did C[C@H](CO)N1C[C@H](C)[C@H](CN(C)Cc2cccc(C(F)(F)F)c2)Oc2ncc(Br)cc2C1=O do in these assays?
YB-1 expression: 0.34

Results for C[C@H]1CN([C@@H](C)CO)C(=O)CCCn2nncc2CO[C@@H]1CN(C)S(=O)(=O)c1ccccc1C#N ?
YB-1 expression: 0.27

How did Cc1ccc(/C=N/NC(=O)CCCCCC(=O)O)o1 do in these assays?
YB-1 expression: -0.49

How did O=C(NCC(O)CO)[C@@]1(CCS(=O)(=O)c2ccccc2)N=C(c2ccc(OCCCO)cc2)O[C@H]1c1ccccc1 (stereo partly specified) do in these assays?
YB-1 expression: -0.34

Seven consecutive records out of the list so far, for reference:
What do the screens show for `C[C@H](CO)N1C[C@H](C)[C@@H](CN(C)Cc2ccc3c(c2)OCCN3C)OCc2cnnn2CCCC1=O`?
YB-1 expression: -0.24

What do the screens show for `C/C=C/[C@@H](CCn1cc(CCO)nn1)[Si](C)(C)c1ccc(OC)cc1`?
YB-1 expression: -0.11

What do the screens show for `Cc1ccc(N2C(=O)c3ccccc3[C@](C)(C(=O)O)[C@@H]2c2ccc(CO)cc2)nc1`?
YB-1 expression: 0.051

How did C[C@H](CO)N1C[C@H](C)[C@H](CN(C)Cc2cccc(C(F)(F)F)c2)Oc2ncc(Br)cc2C1=O do in these assays?
YB-1 expression: 0.34

Results for C[C@H]1CN([C@@H](C)CO)C(=O)CCCn2nncc2CO[C@@H]1CN(C)S(=O)(=O)c1ccccc1C#N ?
YB-1 expression: 0.27

How did Cc1ccc(/C=N/NC(=O)CCCCCC(=O)O)o1 do in these assays?
YB-1 expression: -0.49

How did O=C(NCC(O)CO)[C@@]1(CCS(=O)(=O)c2ccccc2)N=C(c2ccc(OCCCO)cc2)O[C@H]1c1ccccc1 (stereo partly specified) do in these assays?
YB-1 expression: -0.34

An excerpt; the hit share may differ from the screen's.
